V. cholerae QS = Vibrio cholerae quorum sensing activators, luminescence (AID 686977); V. cholerae quorum sensing reporter, luminescence, 6 h; higher luminescence means a stronger effect; most inactives read 0; luminescence at 50 µM unless noted; hits with a dose series show EC50 in µM; 9,400 tested, under 10 active;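 active = light above mean plus 3 SD and confirmed in a dose series; inconclusive = above that limit without a clear retest; inactive = below it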;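 also: raw light counts without normalisation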
* hit, by the source's call; ? = inconclusive; [ ] = dose if it differs, or a comment.

SMILES | V. cholerae QS
CSc1ccccc1C(=O)NCCc1ccc(S(=O)(=O)N2CCCCC2)cc1 | 0
O=C(CSc1ncnc2c1cnn2-c1ccccc1Cl)N1CCN(C(=O)c2ccco2)CC1 | 0
NCCCSC1=NCCCN1 | 0
O=C1N/C(=N\N=C\c2ccc3ncccc3c2)SC1Cc1ccc(SC(F)F)cc1 (stereo not drawn) | 40
CCc1nnc(NC(=O)CCC(=O)O)s1 | 0
COc1ccc(-c2cn3ccsc3n2)cc1 | 40
Cc1cccc(OCC2=N/C(=C\N(C)C)C(=O)O2)c1 | 0
CCOc1ccccc1NC(=O)C1CCN(S(=O)(=O)c2cccc3cccnc23)CC1 | 40
Nc1nonc1-c1noc(-c2ccc(Br)o2)n1 | 0
CC[N+]1(CC)CC2=Cc3c(ccc4ccccc34)CC2C1 (stereo not drawn) | 0
CCOC(=O)c1sc(N(Cc2ccccc2)C(=O)CSc2ncn[nH]2)nc1C | ?
Cc1cc(NC(=O)c2cc(-c3ccc(C)s3)nc3ccccc23)no1 | 0
O=C(Nc1nc(-c2ccccn2)cs1)c1ccc(Cl)s1 | 40
CCOc1ccc(NCc2nnc(SCC(=O)Nc3cc(C)on3)n2-c2ccc(OC)cc2)cc1 | 0
Cc1c(Cc2ccc3c(c2)OCO3)sc(NC(=O)C(C)(C)C)c1C#N | 40
CCOC(=O)c1ccc(NC2OC(=O)c3ccccc32)cc1 (stereo not drawn) | 0
CCC(Sc1nc2n[nH]c(C)c2c(=N)n1-c1ccc(C)c(Cl)c1)C(=O)N1CCOCC1 (stereo not drawn) | 0
C=CCn1c(=N)n(CC(O)COc2ccc(OC)cc2)c2ccccc21 (stereo not drawn) | ?
CSc1ccccc1NC(=O)c1cnc2n(c1=O)CCS2 | 0
CN1CCOCCOCCN(C)C1=O | 40
CCOc1cc(C(N)=O)cc(Br)c1OCC | 0
Nc1nc(N2CCCCC2)nc(N(c2ccccc2)c2ccccc2)n1 | 40
CCc1nnc(NC(=O)c2nc3nc(C)cc(C)n3n2)s1 | 0
COc1ccc2c(c1)[nH]c1c(C)nccc12 | 0[10 µg/mL]
CCOC(=O)Cn1c(=N)n(CCOc2ccc3ccccc3c2)c2ccccc21 | 0
More results follow:
SMILES | V. cholerae QS
Cc1ccc2cccc(Oc3nnnn3-c3ccccc3)c2n1 | 0
Cc1cc(NC(=O)CSc2ccc3nnc(-c4cccnc4)n3n2)no1 | 0
CC(=O)Nc1ccc(OCC(O)CNC(C)C)cc1 (stereo not drawn) | 40[10 µg/mL]
Oc1ccc(OCc2ccccc2)cc1 | 0[10 µg/mL]
Cc1c(NC(=O)C(C)OC(=O)CNC(=O)c2ccc(C(C)(C)C)cc2)c(=O)n(-c2ccccc2)n1C (stereo not drawn) | 40
COc1cccc(-c2nc(CS(=O)CC(=O)NCc3ccccc3Cl)c(C)o2)c1 (stereo not drawn) | 0
CC(=O)Nc1ccc(OC(=O)c2cccnc2)cc1 | 920
O=C(Cn1nnc(-c2ccccc2)n1)N=Nc1c(O)[nH]c2ccccc12 | 40
CCc1nnc(NC(=O)CSc2nccn2-c2cccc(C)c2)s1 | 0
CN(C)CCNCc1ccc(OC2CCCC2)cc1 | 0
CCCCCCCC(=O)NNC(=O)c1ccc(F)cc1 | 0
Cc1cc(NC(=O)CSc2nnnn2C)n(-c2ccccc2)n1 | 0
CC(=O)O[C@H]1C[C@@H]2CC[C@@H]3[C@H](CC[C@@]4(C)[C@H]3C[C@H]([N+]3(C)CCCCC3)[C@@H]4OC(C)=O)[C@@]2(C)C[C@@H]1[N+]1(C)CCCCC1 | 0[10 µg/mL]
O=C(COc1ccccc1)N1CCN(C(=O)c2ccco2)CC1 | 0
Cc1ccc2c(c1)c(C)c(C)n2CC(O)Cn1nnc2ccccc21 (stereo not drawn) | 0
CN(C)C(=O)CSc1nnc(-c2cccnc2)n1-c1ccccc1 | 40
CC(C)c1nnc(NC(=O)c2ccc(N3C(=O)CCC3=O)cc2)s1 | 0
CCc1nc2ccccc2n1CCC(C)C | 0
O=C(NCc1cccc(C(F)(F)F)c1)c1cc(Cl)cc(Cl)c1 | 0
COc1ccc([C@@H]2Sc3ccccc3N(CCN(C)C)C(=O)[C@@H]2OC(C)=O)cc1 | 0[10 µg/mL]
O=C(NNS(=O)(=O)c1ccccc1)C1CCN(S(=O)(=O)c2ccc(Cl)cc2)CC1 | 240
COCCNS(=O)(=O)c1cccc2cccnc12 | ?
COc1cc(OC)c(NC(=O)CS(=O)(=O)Cc2nc(-c3ccc(C)cc3)oc2C)cc1Cl | 0
CC1CCc2nc(NC(=O)C3COc4ccccc4O3)sc2C1 (stereo not drawn) | 0
CC1=C(/C=C/C(C)=C/C=C/C(C)=C/C(=O)O)C(C)(C)CCC1 | 0[10 µg/mL]

Brought forward from above: 3 compounds, then new ones.
SMILES | V. cholerae QS
COc1cc(OC)c(NC(=O)CS(=O)(=O)Cc2nc(-c3ccc(C)cc3)oc2C)cc1Cl | 0
CC1CCc2nc(NC(=O)C3COc4ccccc4O3)sc2C1 (stereo not drawn) | 0
CC1=C(/C=C/C(C)=C/C=C/C(C)=C/C(=O)O)C(C)(C)CCC1 | 0[10 µg/mL]
COc1ccc(CSc2nnc(CNS(C)(=O)=O)o2)cc1 | 40
Cc1cc(N2CCN(c3ccc(F)cc3)CC2)nc2cc(O)ccc12 | 0
Cc1ccc(C)c2c1[nH]c1ccccc12 | 0
Cc1cc(Nc2c(C)cccc2C)n2nc(C)nc2n1 | 80
O=c1[nH]c(=O)n([C@H]2CC(O)[C@@H](CO)O2)cc1I (stereo partly drawn) | 0[10 µg/mL]
CCOC(=O)N1CCC(NC(=O)CCc2c(C)nc3ncnn3c2C)CC1 | 0
CCCn1c(=O)c2ccccc2n2c(SCCOc3ccccc3F)nnc12 | 0
Cc1cc(C)cc(OCC(O)CN2C(=O)NC(C)(C)C2=O)c1 (stereo not drawn) | 0
Cc1cc(NC(=O)CSc2ncnc3ccccc23)no1 | 0
COC(=O)c1sc(S(=O)(=O)N2CCC(C)CC2)c(C(=O)OC)c1C | 0
O=C(CS(=O)(=O)c1cn(Cc2ccc(Cl)cc2)c2ccccc12)N1CCCC1 | 0
Cc1cc(C)nc(N/N=C/c2ccccc2)n1 | 0
CCn1c(SCC(=O)c2cccs2)nnc1-c1cccs1 | 40
O=C1c2ccccc2S(=O)(=O)N1Cc1cccc(S(=O)(=O)N2CCOCC2)c1 | 40
CCC(C)(C)NC(=O)c1cc(OC)c(OC)cc1[N+](=O)[O-] | 0
O=C(CSc1nc2c(c(=O)n1-c1ccc(Cl)cc1)SCC2)N1CCOCC1 | 0
CCOc1cc2[nH]c(=O)n(Cc3ccc(C(=O)NCCOC)cc3)c(=O)c2cc1OCC | 0
COc1ccccc1C(=O)NC(CCSC)C(=O)NCC(c1ccco1)N(C)C (stereo not drawn) | 40
CC(=O)Oc1cccc(N2C(=O)C3C4C=CC(C4=C(C)C)C3C2=O)c1 (stereo not drawn) | 0
CCOC(=O)c1sc(C)c2c1NC(C)(c1ccccc1)NC2=O (stereo not drawn) | 0
CCc1ccc(Cn2nnc(C(=O)Nc3cccc(C)c3)c2N)cc1 | 40
CCOC(=O)c1oc2c(CN3CCN(C)CC3)c(O)ccc2c(=O)c1-c1ccccc1OC | 40
COc1cccc(C(=O)Cn2c(=O)n(CC3CCCO3)c(=O)c3ccccc32)c1 (stereo not drawn) | 360
CC(NC(=O)c1ccc(Cl)cc1)C(=O)N1CCCCC1 (stereo not drawn) | 0
CCCC(=O)Nc1ccccc1N1CCN(C(=O)c2ccccc2)CC1 | 40
Later entries.
SMILES | V. cholerae QS
COc1ccc(C2=C(CN(C)C)C(c3ccccc3)c3ccccc3O2)cc1 (stereo not drawn) | 0
CSc1snc(SCC(N)=O)c1C#N | 0
Cc1ccc(-n2c(C)cc(C(=O)COC(=O)c3c(C)noc3C)c2C)cc1 | 40
Cc1nc(-c2ccc(NC(=O)c3cccs3)cc2)cs1 | 0
O=C(CN(c1ccc(F)cc1)S(=O)(=O)c1ccc2c(c1)OCCO2)N1CCOCC1 | 0
CCOC(=O)C1CCN(c2c(N3CCCCCC3)c(=O)c2=O)CC1 | 40
C[C@@H]1O[C@@H](O[C@H]2[C@H](Oc3cc(O)c4c(c3)O[C@H](c3ccc(O)cc3)CC4=O)O[C@H](CO)[C@@H](O)[C@@H]2O)[C@H](O)[C@H](O)[C@H]1O | 40[10 µg/mL]
CNCC(O)c1ccc(O)c(OC)c1 (stereo not drawn) | 0[10 µg/mL]
CCOc1ccccc1NC1c2ccccc2C(=O)N1c1ccc(C)cn1 (stereo not drawn) | 0
Cc1ccccc1-c1nc2ccccc2o1 | 40
O=C(Nc1ccc(S(=O)(=O)N2CCc3ccccc32)cc1)c1ccc2c(c1)OCO2 | 40
CCOC(=O)c1[nH]c(C)c(C(=O)NC2CCCC2)c1C | 0
O=C(Cn1cc2c(n1)CCCCC2)Nc1ccc(F)cc1F | 0
CC1(C)N=C(c2cccs2)C(C)(C)N1O | 40
CC1CCN(C(=O)c2cccc(S(=O)(=O)N3CCCCC3)c2)CC1 | 0
CC(C)C(c1nnnn1CCc1ccccc1)N1CCN(C(=O)c2ccco2)CC1 (stereo not drawn) | 0
CCCN(CCC)CCNc1c(NC2CCN(C(=O)OCC)CC2)c(=O)c1=O | 0
c1cncc(-c2nnc3n2CCC3)c1 | 0
CC(=O)c1ccc(NC(=O)CSc2nc3nc(C)cc(C)n3n2)cc1 | 0
NC(=O)N1CCN(C(=O)c2ccco2)CC1 | 360
COc1ccc(N2CCN(Cc3nc4c(c(=O)n(C)c(=O)n4C)n3Cc3cccc(C)c3)CC2)cc1 | 40
COc1ccccc1N1CCN(S(=O)(=O)c2cccc(F)c2)CC1 | 40
CN/C(=C/[N+](=O)[O-])NCCSCc1ccc(CN(C)C)o1 | 0[10 µg/mL]
Cc1ccc(S(=O)(=O)N(CCCO)Cc2cc3c(C)ccc(C)c3[nH]c2=O)cc1 | 0
Cc1cc(C)cc(Oc2nc(-c3ccccc3)cc(C)c2S(C)(=O)=O)c1 | 0
Remaining list, next part
SMILES | V. cholerae QS
Cc1ccc(CC2CC(=O)N(c3cc(C)on3)C2=O)cc1 (stereo not drawn) | 0
O=C1c2[nH]nc(-c3ccccc3O)c2C(c2ccc(F)cc2)N1CC1CCCO1 (stereo not drawn) | 40
Cc1cccc(-c2nc(CS(=O)CC(=O)NCC3CCCO3)c(C)o2)c1 (stereo not drawn) | 0
OCCOCCNc1ncnc2nc[nH]c12 | 0
CC(=O)N(CC(C)C(=O)O)c1c(I)cc(I)c(N)c1I (stereo not drawn) | 40[10 µg/mL]
CN(C)CCCOC(=O)c1ccc(Br)cc1 | 0
Cc1nc2c(cnn2-c2ccc(Cl)cc2)c(=O)n1-c1ccc(N2CCC(C)CC2)cc1 | 0
O=C(c1cc2ccccc2oc1=O)N1CCN(c2ccc(N3CCOCC3)nn2)CC1 | 0
CCN1CCCC1CNC(=O)c1cc(S(N)(=O)=O)ccc1OC (stereo not drawn) | 40[10 µg/mL]
COc1ccc(NC(=O)C2CCC(CNc3c(N4CCC(C)CC4)c(=O)c3=O)CC2)cc1OC (stereo not drawn) | 0
CCc1ccc(N2CC34C=CC(O3)C(C(=O)OC)C4C2=O)cc1 (stereo not drawn) | 0
CCOC(=O)c1[nH]c(C)c(C(=O)N2CCN(c3cccc(Cl)c3)CC2)c1C | 0
CCCCN(Cc1cc2cc(OC)ccc2[nH]c1=O)C(=O)c1ccco1 | 0
CCOC(=O)N1CCN(c2cc(=O)n(-c3cccc(Br)c3)c(=O)[nH]2)CC1 | 40
CC1CN(C(=O)c2cccc(C(=O)N3CC(C)OC(C)C3)c2)CC(C)O1 (stereo not drawn) | 40
CC(C(=O)O)c1ccc(N2Cc3ccccc3C2=O)cc1 (stereo not drawn) | 0[10 µg/mL]
Clc1ccccc1OCc1nc(-c2ccc(Br)o2)no1 | 0
Cc1ccc(S(=O)(=O)N(CC(=O)NCCSC2CCCCC2)c2ccccc2F)cc1 | 240
Cc1ccc(-n2nnc3c(=O)n(CC(=O)N4CCC(C)CC4)cnc32)cc1 | 0
COc1ccc(CCN(C(=O)c2cccc(F)c2)C2CC(=O)N(c3ccc(OC)cc3)C2=O)cc1 (stereo not drawn) | 40
CN(C)Cc1c(O)ccc2c3c(c(=O)oc12)CCCCC3 | 0
CCCn1c(CN2CCCCC2C)nc2c1c(=O)n(C)c(=O)n2C (stereo not drawn) | 0
Cc1cccc(N2CCN(C(=O)CCc3nc4ccccc4[nH]3)CC2C)c1 (stereo not drawn) | 0
COc1cc(OC)c(OC)cc1CN1CCN(S(=O)(=O)c2ccc(F)cc2)CC1 | ?
COC(=O)c1ccc(NC(=O)CN(Cc2ccc(Cl)cc2)S(C)(=O)=O)cc1 | 0
Cc1nnc(N(C(=O)c2cnccn2)c2ccccc2)s1 | 0

In the list so far, these contain two or more sulfur atoms:
SMILES | V. cholerae QS
CSc1ccccc1C(=O)NCCc1ccc(S(=O)(=O)N2CCCCC2)cc1 | 0
O=C1N/C(=N\N=C\c2ccc3ncccc3c2)SC1Cc1ccc(SC(F)F)cc1 (stereo not drawn) | 40
CCOC(=O)c1sc(N(Cc2ccccc2)C(=O)CSc2ncn[nH]2)nc1C | ?
O=C(Nc1nc(-c2ccccn2)cs1)c1ccc(Cl)s1 | 40
CSc1ccccc1NC(=O)c1cnc2n(c1=O)CCS2 | 0
CCc1nnc(NC(=O)CSc2nccn2-c2cccc(C)c2)s1 | 0
O=C(NNS(=O)(=O)c1ccccc1)C1CCN(S(=O)(=O)c2ccc(Cl)cc2)CC1 | 240
COc1ccc(CSc2nnc(CNS(C)(=O)=O)o2)cc1 | 40
COC(=O)c1sc(S(=O)(=O)N2CCC(C)CC2)c(C(=O)OC)c1C | 0
CCn1c(SCC(=O)c2cccs2)nnc1-c1cccs1 | 40
O=C1c2ccccc2S(=O)(=O)N1Cc1cccc(S(=O)(=O)N2CCOCC2)c1 | 40
O=C(CSc1nc2c(c(=O)n1-c1ccc(Cl)cc1)SCC2)N1CCOCC1 | 0
CSc1snc(SCC(N)=O)c1C#N | 0
Cc1nc(-c2ccc(NC(=O)c3cccs3)cc2)cs1 | 0
Cc1ccc(S(=O)(=O)N(CC(=O)NCCSC2CCCCC2)c2ccccc2F)cc1 | 240

Screening results as filed in PubChem BioAssay.

This is a subset (hit frequency here may not be typical).
